Assay outcomes as filed in PubChem BioAssay.
p53 mut binder = mutant p53 (human) binding; small molecule microarray binding, anti-GST fluorescence; calls only; 0.4% of 17,000 active;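 active means compounds whose four printed spots each glow above background more than chance allows, each with a p-value under 7%; compounds were printed on slides so no solution concentration is given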;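 further: about 2 pmol printed per array spot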
Myc binder = c-Myc (human) binding; 1.5% of 17,000 active; calls only; P01106; small molecule microarray, His-c-Myc binding, anti-His fluorescence;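 active means spot fluorescence over background with P-value below 7% in all four replicate spots, showing protein binding; compounds were printed on slides so no solution concentration is given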;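 further: score is binary with 100 for all four spots passing and 0 otherwise; about 2 pmol printed per array spot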
Target sequence (P01106 whole entry, looked up): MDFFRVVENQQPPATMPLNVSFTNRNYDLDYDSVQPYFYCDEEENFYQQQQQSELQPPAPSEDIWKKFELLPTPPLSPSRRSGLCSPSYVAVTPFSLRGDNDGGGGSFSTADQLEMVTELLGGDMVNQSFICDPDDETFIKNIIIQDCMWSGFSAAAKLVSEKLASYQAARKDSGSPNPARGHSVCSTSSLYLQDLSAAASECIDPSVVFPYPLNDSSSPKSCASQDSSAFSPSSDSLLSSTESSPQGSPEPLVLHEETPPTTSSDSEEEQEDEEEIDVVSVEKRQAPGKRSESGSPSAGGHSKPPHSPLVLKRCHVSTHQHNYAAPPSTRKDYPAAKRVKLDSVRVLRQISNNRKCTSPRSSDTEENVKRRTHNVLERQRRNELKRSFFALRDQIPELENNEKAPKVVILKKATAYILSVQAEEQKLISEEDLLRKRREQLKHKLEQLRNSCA
STAT3 SMM = binders of human STAT3; calls only; AID 624138; 0.2% of 17,000 active; Small molecule microarray, His-STAT3 binding, anti-His fluorescence;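 active means compounds whose four printed spots each show fluorescence over background unusually high for their array block, chance value under 7%; compounds were printed on slides so no solution concentration is given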;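 further: about 2 pmol printed per array spot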
ID4 SMM = binds human ID4 protein on microarray; P47928; small molecule microarray, Flag-ID4 binding, fluorescence F/B; AID 624137; calls only; 1.2% of 31,000 active;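 active means spot signal over background at p below 0.07 in all four prints; compounds were printed on slides so no solution concentration is given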;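 further: a binder raises fluorescence above local background on the spot; about 2 pmol printed per array spot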
Target sequence (P47928 whole entry, looked up): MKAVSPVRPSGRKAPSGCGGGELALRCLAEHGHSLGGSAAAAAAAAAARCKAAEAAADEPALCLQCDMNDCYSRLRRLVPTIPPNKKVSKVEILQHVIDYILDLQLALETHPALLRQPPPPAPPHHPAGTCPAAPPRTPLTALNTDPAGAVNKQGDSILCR
Calls only. Not all compounds are listed, so the mix of outcomes need not match the whole.

Start of the data: the first 7 entries (preview)
For COc1cc2ccc(=O)oc2cc1OCC=C(C)C the results were p53 mut binder inactive, Myc binder inactive, STAT3 SMM inactive and ID4 SMM inactive.
C[C@H]1CN([C@@H](C)CO)C(=O)c2cccc(NC(=O)C3CCOCC3)c2O[C@H]1CN(C)C(=O)Nc1ccc(F)cc1 was read as p53 mut binder inactive, Myc binder inactive, STAT3 SMM inactive and ID4 SMM inactive.
`C[C@@H]1CN([C@@H](C)CO)C(=O)c2cccc(NC(=O)NC3CCCCC3)c2O[C@H]1CN(C)Cc1ccc(C(=O)O)cc1` gave p53 mut binder inactive, Myc binder inactive, STAT3 SMM inactive and ID4 SMM inactive.
For C[C@@H]1CN([C@H](C)CO)C(=O)Cc2cc(NC(=O)Cc3cn(C)c4ccccc34)ccc2O[C@@H]1CN(C)Cc1ccc(C(F)(F)F)cc1 the results were p53 mut binder inactive, Myc binder inactive and STAT3 SMM inactive.
For CNC[C@@H]1Oc2ccc(NC(=O)Nc3ccc(F)cc3)cc2C(=O)N([C@@H](C)CO)C[C@H]1C the results were p53 mut binder inactive, Myc binder inactive, STAT3 SMM inactive and ID4 SMM inactive.
`CCCCC[C@@H](O)CC(=O)CCc1ccc(O)c(OC)c1` gave p53 mut binder inactive, Myc binder inactive and STAT3 SMM inactive.
Screening COc1ccc(S(=O)(=O)Nc2cccc3c2O[C@@H](CN(C)Cc2ccncc2)[C@H](C)CN([C@H](C)CO)C3=O)cc1 returned p53 mut binder inactive, Myc binder inactive, STAT3 SMM inactive and ID4 SMM inactive.

This part in full, from the start:
For COc1cc2ccc(=O)oc2cc1OCC=C(C)C the results were p53 mut binder inactive, Myc binder inactive, STAT3 SMM inactive and ID4 SMM inactive.
C[C@H]1CN([C@@H](C)CO)C(=O)c2cccc(NC(=O)C3CCOCC3)c2O[C@H]1CN(C)C(=O)Nc1ccc(F)cc1 was read as p53 mut binder inactive, Myc binder inactive, STAT3 SMM inactive and ID4 SMM inactive.
`C[C@@H]1CN([C@@H](C)CO)C(=O)c2cccc(NC(=O)NC3CCCCC3)c2O[C@H]1CN(C)Cc1ccc(C(=O)O)cc1` gave p53 mut binder inactive, Myc binder inactive, STAT3 SMM inactive and ID4 SMM inactive.
For C[C@@H]1CN([C@H](C)CO)C(=O)Cc2cc(NC(=O)Cc3cn(C)c4ccccc34)ccc2O[C@@H]1CN(C)Cc1ccc(C(F)(F)F)cc1 the results were p53 mut binder inactive, Myc binder inactive and STAT3 SMM inactive.
For CNC[C@@H]1Oc2ccc(NC(=O)Nc3ccc(F)cc3)cc2C(=O)N([C@@H](C)CO)C[C@H]1C the results were p53 mut binder inactive, Myc binder inactive, STAT3 SMM inactive and ID4 SMM inactive.
`CCCCC[C@@H](O)CC(=O)CCc1ccc(O)c(OC)c1` gave p53 mut binder inactive, Myc binder inactive and STAT3 SMM inactive.
Screening COc1ccc(S(=O)(=O)Nc2cccc3c2O[C@@H](CN(C)Cc2ccncc2)[C@H](C)CN([C@H](C)CO)C3=O)cc1 returned p53 mut binder inactive, Myc binder inactive, STAT3 SMM inactive and ID4 SMM inactive.
Cc1noc(C)c1NC(=O)N(C)C[C@@H]1OCCCC[C@H](C)Oc2ccc(NC(=O)c3ccncc3)cc2C(=O)N([C@@H](C)CO)C[C@H]1C was read as p53 mut binder inactive, Myc binder inactive, STAT3 SMM inactive and ID4 SMM inactive.
`COCC1=C([C@H](O)c2ccccc2)[C@H](CO)[C@@H]2C(=O)N(Cc3ccccc3)C(=O)[C@@H]2C1` gave p53 mut binder inactive, Myc binder inactive, STAT3 SMM inactive and ID4 SMM inactive.
`C[C@H](CO)N1C[C@H](C)[C@H](CN(C)Cc2ccc(C(=O)O)cc2)Oc2ccc(NC(=O)Nc3ccc(F)cc3)cc2CC1=O` gave p53 mut binder inactive, Myc binder inactive, STAT3 SMM inactive and ID4 SMM inactive.
`C[C@@H]1CCCCO[C@@H](CN(C)C)[C@H](C)CN([C@@H](C)CO)C(=O)c2cc(NS(=O)(=O)c3cn(C)cn3)ccc2O1` gave p53 mut binder inactive, Myc binder inactive, STAT3 SMM inactive and ID4 SMM inactive.
Screening Cc1ccc(CC(CC(=O)O)C(=O)Nc2cc(C)ccc2C)cc1 (stereo unspecified) returned p53 mut binder inactive, Myc binder inactive, STAT3 SMM inactive and ID4 SMM inactive.
C[C@H](CO)N1C[C@H](C)[C@H](CN(C)Cc2ccc3cccnc3c2)OCc2cn(nn2)CCCC1=O was read as p53 mut binder inactive, Myc binder inactive, STAT3 SMM inactive and ID4 SMM inactive.
C[C@@H]1CN([C@H](C)CO)C(=O)Cc2cc(NC(=O)Cn3cnnn3)ccc2O[C@@H]1CN(C)C(=O)Nc1ccccc1 was read as p53 mut binder inactive, Myc binder inactive, STAT3 SMM inactive and ID4 SMM inactive.
Screening CC1(C)CC[C@@]2(C(=O)O)C(C1)C1=CCC3[C@@]4(C)CC[C@H](O[C@@H]5O[C@H](C(=O)O)[C@@H](O[C@H]6OC[C@](O)(CO)[C@H]6O)[C@H](O)[C@H]5O)C(C)(C)C4CC[C@@]3(C)[C@]1(C)C[C@H]2O (stereo partly specified) returned p53 mut binder inactive, Myc binder inactive, STAT3 SMM inactive and ID4 SMM inactive.
`C[C@H]1CN([C@@H](C)CO)C(=O)c2cc(NC(=O)C3CCCCC3)ccc2O[C@@H]1CN(C)C(=O)Nc1ccc2c(c1)OCO2` gave p53 mut binder inactive, Myc binder inactive and STAT3 SMM inactive.
COc1ccc(S(=O)(=O)Nc2cccc3c2O[C@@H](CN(C)Cc2ccc(C(F)(F)F)cc2)[C@@H](C)CN([C@H](C)CO)C3=O)cc1 was read as p53 mut binder inactive, Myc binder inactive, STAT3 SMM inactive and ID4 SMM inactive.
C[C@H](CO)N1C[C@H](C)[C@@H](CN(C)C(=O)Nc2ccc3c(c2)OCO3)OCc2cn(nn2)CCCC1=O was read as p53 mut binder inactive, Myc binder inactive, STAT3 SMM inactive and ID4 SMM inactive.
Screening Cc1noc(C)c1NC(=O)Nc1ccc2c(c1)C(=O)N([C@H](C)CO)C[C@@H](C)[C@H](CN(C)CC1CCCCC1)O2 returned p53 mut binder inactive, Myc binder inactive and STAT3 SMM inactive.
Screening O=C(C1=C[C@H](c2csc3ccccc23)C[C@H](OCc2ccc(CO)cc2)O1)N1CCCCC1 returned p53 mut binder inactive, Myc binder active, STAT3 SMM inactive and ID4 SMM inactive.
Screening C[C@@H]1CN([C@H](C)CO)C(=O)c2cccc(NS(=O)(=O)c3cccs3)c2O[C@H]1CN(C)C(=O)NC1CCCCC1 returned p53 mut binder inactive, Myc binder inactive, STAT3 SMM inactive and ID4 SMM inactive.
`c1ccc(N2CCN(Cc3nc4ccccc4[nH]3)CC2)nc1` gave p53 mut binder inactive, Myc binder inactive, STAT3 SMM inactive and ID4 SMM inactive.
For O=c1c2ccccc2nc(CSc2nnnn2-c2ccccc2)n1-c1ccccc1Cl the results were p53 mut binder inactive, Myc binder inactive, STAT3 SMM inactive and ID4 SMM inactive.
`C[C@@H]1CN([C@@H](C)CO)C(=O)Cc2cc(NC(=O)C3CC3)ccc2O[C@H]1CN(C)C(=O)Nc1ccccc1` gave p53 mut binder inactive, Myc binder inactive, STAT3 SMM inactive and ID4 SMM inactive.
Screening COc1cc(O)c(C)c(O)c1 returned p53 mut binder inactive, Myc binder inactive and STAT3 SMM inactive.
`C[C@@H]1CN([C@@H](C)CO)C(=O)c2cc(NC(=O)Nc3ccccc3)ccc2O[C@@H]1CN(C)C(=O)Nc1ccc(C(F)(F)F)cc1` gave p53 mut binder inactive, Myc binder inactive, STAT3 SMM inactive and ID4 SMM inactive.
For C[C@@H]1CCCCO[C@@H](CN(C)Cc2ccccc2)[C@@H](C)CN([C@H](C)CO)C(=O)c2cc(NC(=O)Nc3ccc4c(c3)OCO4)ccc2O1 the results were p53 mut binder inactive, Myc binder inactive, STAT3 SMM inactive and ID4 SMM inactive.
For CCOc1ccc(N2C(=O)CC(Sc3nc(O)c(CC)c(=O)[nH]3)C2=O)cc1 (stereo unspecified) the results were p53 mut binder inactive, Myc binder inactive, STAT3 SMM inactive and ID4 SMM active.
For Cc1noc(C)c1S(=O)(=O)N(C)C[C@H]1Oc2ccc(NC(=O)Nc3ccc(F)cc3)cc2CC(=O)N([C@H](C)CO)C[C@H]1C the results were p53 mut binder inactive, Myc binder inactive, STAT3 SMM inactive and ID4 SMM inactive.
Screening COc1ccc(S(=O)(=O)Nc2cccc3c2O[C@H](CN(C)CC2CC2)[C@@H](C)CN([C@@H](C)CO)C3=O)cc1 returned p53 mut binder inactive, Myc binder inactive, STAT3 SMM inactive and ID4 SMM inactive.
Screening CCO[C@H]1OC(C(=O)Nc2ccccc2)=C[C@@H](c2coc3ccccc3c2=O)[C@@H]1CCCO returned p53 mut binder inactive, Myc binder inactive, STAT3 SMM inactive and ID4 SMM inactive.
COc1ccc(S(=O)(=O)Nc2cccc3c2O[C@@H](CN(C)S(=O)(=O)c2ccc(F)cc2)[C@@H](C)CN([C@H](C)CO)C3=O)cc1 was read as p53 mut binder inactive, Myc binder inactive, STAT3 SMM inactive and ID4 SMM inactive.
For C[C@H]1CN([C@@H](C)CO)C(=O)c2cccc(NC(=O)c3ccncc3)c2O[C@H]1CN(C)S(=O)(=O)c1cn(C)cn1 the results were p53 mut binder inactive, Myc binder inactive, STAT3 SMM inactive and ID4 SMM inactive.
`O=C(O)[C@H]1O[C@@H](Oc2cc(O)c3c(=O)c(-c4ccc(O)cc4)coc3c2)[C@H](O)[C@@H](O)[C@@H]1O` gave p53 mut binder inactive, Myc binder inactive, STAT3 SMM inactive and ID4 SMM inactive.
For CC(=O)n1cc([C@@H]2C=C(C(=O)N3CCCCCCC3)O[C@H](OCc3ccc(CO)cc3)C2)c2ccccc21 the results were p53 mut binder inactive, Myc binder inactive, STAT3 SMM inactive and ID4 SMM inactive.
Screening COc1cc(NC(=O)CN2c3cccc4cccc(c34)S2(=O)=O)cc(OC)c1OC returned p53 mut binder inactive, Myc binder inactive, STAT3 SMM inactive and ID4 SMM inactive.
COc1ccc(CN(C)C[C@H]2Oc3ccc(NC(=O)Cc4ccccc4)cc3C(=O)N([C@H](C)CO)C[C@H]2C)cc1 was read as p53 mut binder inactive, Myc binder inactive, STAT3 SMM inactive and ID4 SMM inactive.
Screening COc1ccc(S(=O)(=O)N(CC(N)=O)C2CCCCC2)cc1OC returned p53 mut binder inactive, Myc binder inactive, STAT3 SMM inactive and ID4 SMM inactive.
For Cc1noc(C)c1S(=O)(=O)N(C)C[C@@H]1OCCCC[C@H](C)Oc2ccc(NS(C)(=O)=O)cc2C(=O)N([C@H](C)CO)C[C@H]1C the results were p53 mut binder inactive, Myc binder inactive, STAT3 SMM inactive and ID4 SMM inactive.
`C[C@H](CO)N1C[C@H](C)[C@@H](CN(C)Cc2ccc(Cl)c(Cl)c2)Oc2ccc(NC(=O)Cc3ccccc3)cc2CC1=O` gave p53 mut binder inactive, Myc binder inactive and STAT3 SMM inactive.
Screening CCOC(=O)[C@H](CCc1ccccc1)N[C@@H](C)C(=O)N1C(C(=O)O)C[C@@H]2CCC[C@@H]21 (stereo partly specified) returned p53 mut binder inactive, Myc binder inactive, STAT3 SMM inactive and ID4 SMM inactive.
`C=C(C)C1Cc2cc(C(C)=O)ccc2O1` (stereo unspecified) gave p53 mut binder inactive, Myc binder inactive, STAT3 SMM inactive and ID4 SMM inactive.
Screening COC(=O)c1ccccc1NC(=O)c1cc(-c2ccccn2)nc2c(C)c(Cl)ccc12 returned p53 mut binder inactive, Myc binder inactive, STAT3 SMM inactive and ID4 SMM inactive.
`C[C@@H]1CN([C@H](C)CO)C(=O)Cc2cc(NC(=O)Cc3cn(C)c4ccccc34)ccc2O[C@H]1CN(C)S(=O)(=O)c1cn(C)cn1` gave p53 mut binder inactive, Myc binder inactive, STAT3 SMM inactive and ID4 SMM inactive.
`C[C@H](CO)N1C[C@H](C)[C@@H](CN(C)C(=O)Nc2cccc3ccccc23)Oc2ccc(NS(=O)(=O)c3ccccc3)cc2C1=O` gave p53 mut binder inactive, Myc binder inactive, STAT3 SMM inactive and ID4 SMM inactive.
For C[C@@H]1CN([C@H](C)CO)C(=O)Cc2cc(NC(=O)C3CC3)ccc2O[C@H]1CN(C)C(=O)Nc1ccccc1 the results were p53 mut binder inactive, Myc binder inactive, STAT3 SMM inactive and ID4 SMM inactive.
For C[C@H](CO)N1C[C@H](C)[C@@H](CN(C)Cc2ccccc2)OCCCC[C@H](C)Oc2ccc(NC(=O)CCC(F)(F)F)cc2C1=O the results were p53 mut binder inactive, Myc binder inactive, STAT3 SMM inactive and ID4 SMM inactive.
Cc1noc(C)c1S(=O)(=O)Nc1ccc2c(c1)C(=O)N([C@H](C)CO)C[C@H](C)[C@H](CN(C)C)O2 was read as p53 mut binder inactive, Myc binder inactive, STAT3 SMM inactive and ID4 SMM inactive.
For COC(=O)c1cc(Br)ccc1NC(=O)COc1ccc(C(C)(C)C)cc1 the results were p53 mut binder inactive, Myc binder active, STAT3 SMM inactive and ID4 SMM inactive.
Screening C[C@@H]1CN([C@@H](C)CO)C(=O)Cc2cc(NC(=O)NC3CCCCC3)ccc2O[C@@H]1CN(C)S(=O)(=O)c1cccs1 returned p53 mut binder inactive, Myc binder inactive, STAT3 SMM inactive and ID4 SMM inactive.
C[C@H](CO)N1C[C@H](C)[C@@H](CN(C)CC2CC2)Oc2ccc(NC(=O)Cc3ccccc3)cc2C1=O was read as p53 mut binder inactive, Myc binder inactive, STAT3 SMM inactive and ID4 SMM inactive.
